VDR inh = Inhibitors of the vitamin D receptor (VDR): qHTS; Vitamin D3 receptor (Homo sapiens), P11473; VDR-SRC2-3 peptide fluorescence polarization, 2 h; Potency, µM, for inactives: max response, negative = inhibition, usual class: inhibitors; 0.93% of 400,000 active; active = well fitted inhibition curve with a large enough effect; inconclusive = small, poorly fitted or top-dose-only effect, or another doubt; inactive = no such curve, though single readings can be large or run the other way; also: series mostly up to about 120 µM
Target sequence (P11473 whole entry, looked up): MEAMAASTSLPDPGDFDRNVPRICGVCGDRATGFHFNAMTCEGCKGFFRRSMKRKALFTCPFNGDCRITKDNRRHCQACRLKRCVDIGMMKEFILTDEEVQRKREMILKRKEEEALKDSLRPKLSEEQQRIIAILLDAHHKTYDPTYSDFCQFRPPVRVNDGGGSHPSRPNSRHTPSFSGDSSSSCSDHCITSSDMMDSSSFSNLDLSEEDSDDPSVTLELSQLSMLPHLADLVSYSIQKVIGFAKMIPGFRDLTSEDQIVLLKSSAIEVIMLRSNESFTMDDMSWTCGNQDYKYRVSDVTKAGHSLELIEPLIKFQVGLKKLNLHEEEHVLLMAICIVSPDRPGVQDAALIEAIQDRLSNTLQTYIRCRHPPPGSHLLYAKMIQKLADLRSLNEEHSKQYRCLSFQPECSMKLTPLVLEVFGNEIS
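Fluorescence polarization assay of small-molecule disruption of VDR binding to coregulator peptide SRC2-3. Compounds and controls pin-transferred, then read after 2 h incubation at ambient room temperature.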
Active calls of the source: *; ? = inconclusive. % is scaled to controls: 0 for no effect and ±100 for the full control effect; potency is read from the fitted curve at half-maximal effect. A portion of the library, so the mix of outcomes need not match the whole.

SMILES	VDR inh
CCC(CC)N1CCN(Cc2nc3ccc([N+](=O)[O-])cc3c(=O)n2-c2ccccc2F)CC1	-16%
O=C(NCCc1ccccc1)c1ccccc1[N+](=O)[O-]	-1%
COC(=O)Nc1ccc2c(c1)N(C(=O)CCN(C)C)c1ccccc1CC2	-21%
COC(=O)c1ccc(CNC(=O)COC(=O)Cc2ccsc2)cc1	-12%
CCC(=O)N(CC)C1=C(O)c2ccccc2C(=O)C1=O	79µM*
O=C(Cn1nnc(-c2ccccc2)n1)NCC(=O)Nc1ccc(F)c(F)c1F	-20%
Nc1nc2c(nc(Cl)n2C2OC(CO)C(O)C2O)c(=O)[nH]1 (centres undefined)	-1%
Cc1ccc2nc(-c3ccc(NC(=O)COc4c(C)ccc(C)c4C)cc3)sc2c1	-2%
O=C(Cc1ccc(NC(=O)N2CCCCc3ccccc32)cc1)NCc1ccccc1Br	0%
CNC(=S)N1CCN(c2ccc([N+](=O)[O-])cc2)CC1	-8%
COc1ccc(/C=C2\SC(=O)NC2=S)cc1OC	10µM*
Cc1ccnc(NC(=O)Nc2cccc(F)c2)n1	1%
Cc1nc2ccc(F)cc2cc1C(=O)NCC1CCCO1 (centres undefined)	8%
Cc1cc(Nc2nnnn2-c2ccccc2)n(-c2ccccc2)n1	-10%
CC(C)(C)NS(=O)(=O)c1ccc(CCC(=O)NCc2ccco2)cc1	-25%
COc1cc(=O)[nH]c(=O)n1C(=O)Cc1ccccc1	?
N#C/C(=C(/O)c1ccc(C(=O)c2ccccc2)cc1)c1nc2ccccc2[nH]1	16%
Cc1cc(=O)oc(C)c1C(=O)NCc1ccccc1	1%
C=C1CCN([C@@H](CC(C)C)C(=O)N2CCOCC2)S(=O)(=O)c2ccccc21	-7%
NC(=O)c1c(NC(=O)CN2C(=O)NC(Cc3ccccc3)C2=O)sc2c1CCC2 (centres undefined)	-14%
Cc1ccc(-c2onc(C)c2C)cc1S(=O)(=O)NCc1cccs1	17%
Nc1ncc(CN2CCCC(C(=O)Nc3ccc(-c4ccco4)cc3)C2)cn1 (centres undefined)	-6%
COc1ccccc1NC(=O)c1sc2ncn(Cc3ccc(C)cc3)c(=O)c2c1C	4%
O=C(CN1C(=O)C2C3C=CC(C3)C2C1=O)OCC(=O)c1ccccc1 (centres undefined)	4%
COc1ccc(OC)c(NC(=O)Nc2ccc3c(c2)CCC3)c1	0%

With a hit mark in VDR inh, among the entries above:
SMILES	VDR inh
CCC(=O)N(CC)C1=C(O)c2ccccc2C(=O)C1=O	79µM*
COc1ccc(/C=C2\SC(=O)NC2=S)cc1OC	10µM*

Carrying on:
SMILES	VDR inh
Cc1ccccc1OCC(=O)OCC(=O)Nc1cc(C(F)(F)F)ccc1N1CCOCC1	-10%
Cc1ccc(NC(=O)COC(=O)CCC(=O)c2cccs2)c(C)c1	3%
O=C(CCC(=O)c1ccc(F)cc1)Nc1cc(Cl)cc(Cl)c1	4%
COc1ccc(/C=C/C(=O)NC(=S)N2CCSCC2)cc1	-14%
CCOC(=O)N1CCC(NC(=O)c2cc3c(-c4cccc(OC)c4)nn(C)c3s2)CC1	-4%
c1cncc(CNc2ncnc3sc4c(c23)CCC4)c1	-2%
COc1ccc(OC)c(-c2nnc(SCC(=O)N3CCCC3)o2)c1	0%
COc1cc(N(Cc2ccccc2)Cc2ccccc2)c2ncn(C(C)C)c2c1	-24%
N#C/C(=C(/O)COC(=O)CSc1ccc2ccccc2c1)c1nc2ccccc2[nH]1	-1%
O=C(Nc1cccnc1)C1CCN(S(=O)(=O)c2cccc3nonc23)CC1	-13%
Cc1ccc(CSCC(=O)Nc2c(C)n(C)n(-c3ccccc3)c2=O)cc1	5%
CCOC(=O)C(=CNCC(=O)O)C(=O)OCC	3%
COc1cc(NC(=O)CN2c3ccccc3CC2C)cc(OC)c1OC (centres undefined)	-2%
Cc1ccc(S(=O)(=O)Nc2cccc(-n3cnnn3)c2)cc1	-4%
O=C(COc1ccccc1)N1CCN=C1SCc1ccc(F)cc1	-11%
Cn1c(=O)c2c(nc(N3CCc4ccccc4C3)n2Cc2ccccc2F)n(C)c1=O	-7%
Nc1ccc(N2CCCC2)c(S(=O)(=O)Nc2cccc(C(F)(F)F)c2)c1	40µM*
COC(=O)C1=C(COc2ccccc2)NC(=O)NC1c1ccc(Br)cc1 (centres undefined)	1%
O=C(NCCSCc1c(F)cccc1Cl)C1CCN(S(=O)(=O)Cc2ccccc2)CC1	5%
CCOC(=O)c1ccc2ncc(C(=O)OCC)c(NCc3ccco3)c2c1	6%
CN(Cc1ccco1)c1nc(-c2ccccc2Cl)nc2ccccc12	?
O=C1CC(c2ccc(Cl)cc2)N=C(NC(=O)c2ccccc2)N1 (centres undefined)	-1%
CC(NC(=S)NCCc1ccccc1)C(c1cccs1)N1CCN(C)CC1 (centres undefined)	-15%
COc1ccc(C2C(C(=O)Nc3ccccc3)=C(C)Nc3nc(-c4ccccc4)nn32)cc1OC (centres undefined)	?
Cc1ccc(NC(=S)N2CCCCCC2)c(C)c1	21%

Reformatted with each value named: 3 of the compounds above.
COc1cc(NC(=O)CN2c3ccccc3CC2C)cc(OC)c1OC (centres undefined)
  VDR inh: -2%

Cc1ccc(S(=O)(=O)Nc2cccc(-n3cnnn3)c2)cc1
  VDR inh: -4%

O=C(COc1ccccc1)N1CCN=C1SCc1ccc(F)cc1
  VDR inh: -11%

Next section:
SMILES	VDR inh
CC(NC(=O)C1CCCN1C(=O)CN)C(=O)O (centres undefined)	-2%
O=C(Cc1ccccc1)N/N=C/c1ccc(S(=O)(=O)O)o1	-6%
CC(C)(C)c1cc(C(=O)N2CCc3ccccc32)ccn1	-6%
Cc1c(OC(C)C(=O)NCCN2CCOCC2)ccc2c3c(c(=O)oc12)CCCC3 (centres undefined)	-16%
CCCS(=O)(=O)N1CCc2cc(OC)c(OC)cc2C1	11%
CN(C)CCCNc1oc(-c2ccccc2)nc1C#N	-2%
Cc1cc2ncc(C(=O)Nc3ccsc3C(=O)O)c(C)n2n1	-23%
O=C(NCC(c1ccco1)N1CCCC1)c1cn(-c2ccccc2)nc1-c1ccc(F)cc1 (centres undefined)	1%
O=C(NC1CCCC1)c1ccc2nc(-c3ccco3)c(-c3ccco3)nc2c1	?
CCc1ccc(C(=O)NC(=S)Nc2ccc3c(c2)OCCO3)cc1	2%
CC(C)(C)c1ccc(Oc2nc3ccccn3c(=O)c2/C=C(\C#N)c2nc3ccccc3s2)cc1	?
Cc1cccc2nc(CSc3ccccc3C(=O)O)cn12	-3%
COc1ccc(NC(=O)c2cccnc2)cc1OCC(C)C	13%
COc1ccc(Cc2noc(CN(C)CC3(N4CCOCC4)CCCCC3)n2)cc1OC	-30%
C=C1N(CCCCCC(=O)O)C(=O)OC12CCCCC2	-8%
CCCc1cc2c(cc1N(C)S(=O)(=O)c1ccccc1)OCO2	-5%
COc1ccc(C(=O)NCCc2cc3c(OC)ccc(OC)c3[nH]c2=O)cc1OC	5%
Cc1ccc(S(=O)(=O)CCC(=O)OCC(=O)N2CCN(S(=O)(=O)c3ccccc3)CC2)cc1	-8%
Cc1cc(C)n2nc3ccccc3c2n1	-8%
CCC1CCCCN1C(=O)c1sc2nc(C)nc(N(CC)CC)c2c1C (centres undefined)	-1%
O=C1c2ccccc2C(=O)N1CCCCCc1nc(-c2ccccc2)no1	-6%
Cc1ccc(S(=O)(=O)NC(CC(C)C)C(=O)N2CCCC2)cc1 (centres undefined)	9%
CCCCC(=O)Nc1ccc(NC(=O)c2ccccc2[N+](=O)[O-])cc1OC	-1%
O=C(NCCc1ccccn1)c1cc(-c2cccc3ccccc23)nc2ccccc12	18%
COc1c(C)cc(S(=O)(=O)NCc2ccccn2)c(C)c1C	0%

Among those listed so far, 6 have two or more sulfur atoms.
SMILES	VDR inh
COc1ccc(/C=C2\SC(=O)NC2=S)cc1OC	10µM*
Cc1ccc(-c2onc(C)c2C)cc1S(=O)(=O)NCc1cccs1	17%
COc1ccc(/C=C/C(=O)NC(=S)N2CCSCC2)cc1	-14%
O=C(NCCSCc1c(F)cccc1Cl)C1CCN(S(=O)(=O)Cc2ccccc2)CC1	5%
CC(NC(=S)NCCc1ccccc1)C(c1cccs1)N1CCN(C)CC1 (centres undefined)	-15%
Cc1ccc(S(=O)(=O)CCC(=O)OCC(=O)N2CCN(S(=O)(=O)c3ccccc3)CC2)cc1	-8%

Additional structures.
SMILES	VDR inh
COc1cccc(OCc2cc(C(=O)NCc3ccccn3)no2)c1	-14%
Cc1ccc(O)c(-c2cc(-c3ccc(F)cc3)no2)c1	-25%
CCOC(=O)c1c(NC(=O)c2ccc(N3C(=O)[C@@H]4[C@H](C3=O)[C@H]3C=C[C@@H]4C3)cc2)sc2c1CCCC2	4%
O=C(C1CCCN1S(=O)(=O)c1cccc2nsnc12)N1CCN(c2ccccc2)CC1 (centres undefined)	4%
CCN1C/C(=C/c2ccc(OC)c(O)c2)C(=O)/C(=C/c2ccc(OC)c(O)c2)C1	-30%
O=C(NC1CCS(=O)(=O)C1)/C(=C/c1ccco1)NC(=O)c1ccccc1 (centres undefined)	10%
Cc1ccc(N=c2c([N+](=O)[O-])nn(-c3ccccc3)n2O)c(C)c1	-15%
CC(=O)CSc1nc(-c2cccs2)c(C#N)c(=O)[nH]1	-7%
Cc1cccc2cc(CN(Cc3ccccc3)Cc3nnnn3Cc3ccccc3)c(=O)[nH]c12	-6%
COc1ccc(C(=O)N/N=C2\SCC(=O)N2Cc2ccc3c(c2)OCO3)c(OC)c1	3%
CN1CCN(c2nc(N3CCN(c4ccccc4)CC3)ncc2F)CC1	3%
COC(=O)C1NC(=O)N2C(C(=O)OC)C(C)(C)S[C@H]12 (some centres undefined)	-17%
CCC(C)NC(=O)c1ccc2c(c1)N(Cc1ccccc1F)C(=O)c1ccccc1S2=O (centres undefined)	2%
O=C(CSc1nnc(C2CC2)n1Cc1ccccc1)c1ccc(S(=O)(=O)N2CCOCC2)cc1	3%
CCCOc1ccc(-c2nnc(-c3ccco3)o2)cc1	3%
CCCc1nnc(NC(=O)Cc2coc3ccc(C(C)C)cc23)s1	1%
COc1ccc(NC(=O)c2cc(-c3ccc4c(c3)OCO4)on2)c(OC)c1	-25%
COc1ccc(-c2nnc(SCC3CCCO3)n2C)cc1 (centres undefined)	-6%
CCOC(=O)C1=NN(c2ccccc2)C(c2ccccc2)CC1=O (centres undefined)	-2%
CN1C(=O)C(C)(C)N(C(=O)c2cccc([N+](=O)[O-])c2)c2ccccc21	-13%
CCCc1nc2oc3c(NCCOCCO)ncnc3c2c2c1COC(C)(C)C2	-23%
Cc1cc(NC(=O)C2CC(c3cccc(Br)c3)=NO2)no1 (centres undefined)	3%
CC(C)(C)OC(=O)NS(=O)(=O)Nc1ccccc1Br	21%
NC(=O)c1ccsc1NC(=O)COC(=O)c1ccc([N+](=O)[O-])o1	-28%
O=C(COC(=O)CNS(=O)(=O)c1cccc(F)c1)NCCc1ccccc1	3%

Next part
SMILES	VDR inh
C=CCn1c(-c2cccc(OC)c2)n[nH]c1=S	9%
CC(=O)CCc1ccc2oc(C(=O)O)c(C)c2c1	13%
Cc1[nH]n(-c2ccccc2)c(=O)c1C=NCCc1ccccc1	-9%
CC(=O)Nc1ccc(SCC(CC(C)C)N2CCN(CC(C)C)CCC2=O)cc1 (centres undefined)	-27%
O=C(NC1CCCCCC1)c1cccs1	15%
CC(C)C(NS(=O)(=O)c1cccs1)C(=O)N1CCc2ccccc2C1 (centres undefined)	-1%
COc1ccc2oc(C(=O)N3CCN(S(=O)(=O)c4cccc([N+](=O)[O-])c4)CC3)c(C)c2c1	-14%
O=S(=O)(c1ccc(OC(F)(F)F)cc1)N1CCN(c2nc(-c3ccccc3)nc3ccccc23)CC1	-17%
CC(NC(=O)CCNC(=O)N1CCn2c1nc1ccccc12)c1ccccc1 (centres undefined)	2%
O=C(NCCC1=CCCCC1)C1CCN(S(=O)(=O)c2ccccc2)CC1	-4%
COc1ccccc1CNc1nc(-c2ccco2)nn1S(=O)(=O)c1ccc(C)cc1	9%
CCN(C[C@H]1N[C@@](Cc2ccccc2)(C(=O)OC)[C@H]2C(=O)N(Cc3ccccc3)C(=O)[C@@H]12)C(=O)C1CCCCC1	?
Cc1cc(N)n(-c2nc3ccccc3s2)n1	-19%
CN1CCC(=O)N(CCOc2ccccc2)CC1	-7%
CCOC(=O)C1=C(C)NC(C)=C(C(=O)OCC)C1/C=C/c1ccccc1	2%
CCN(CC)S(=O)(=O)N1CCC(C(=O)NCC2COc3ccccc3O2)CC1 (centres undefined)	11%
COc1ccc(Cc2nn3c(-c4ccccc4Br)nnc3s2)cc1	-4%
Cc1nn(C)cc1CN1CCC(CO)(CCOc2ccccc2)CC1	2%
CC(Sc1nnc(C2CC2)n1C1CC1)C(=O)Nc1cccc(S(=O)(=O)N2CCOCC2)c1 (centres undefined)	1%
NC(=O)C1(NC(=O)[C@@H]2CC3(CC(c4cccc(NC(=O)c5cc([N+](=O)[O-])cc([N+](=O)[O-])c5)c4)=NO3)CN2C(=O)c2ccccc2)CC1 (some centres undefined)	-1%
CN(C)N1C(=O)CC(N2CCCCC2)C1=O (centres undefined)	-10%
O=C(Nc1ccc(N2CCN(Cc3ccccc3Cl)CC2)cc1)c1cccnc1	2%
C/C(=N/NC(=O)c1cccs1)c1ccc(NC(=O)COc2ccc(Cl)cc2Cl)cc1	-6%

Part of the list above in order of SMILES length, ascending.
SMILES	VDR inh
CN1CCC(=O)N(CCOc2ccccc2)CC1	-7%
Cc1ccnc(NC(=O)Nc2cccc(F)c2)n1	1%
Cc1ccc(S(=O)(=O)NC(CC(C)C)C(=O)N2CCCC2)cc1 (centres undefined)	9%

Screening data deposited in PubChem by National Center for Advancing Translational Sciences (NCATS).
